Sa helicase inh = blocks Staphylococcus aureus DNA helicase; purified S. aureus helicase, fluorescence unwinding assay; about half of the hits fall short of the stated cut; inhibition, %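 (tested at about 80 µM)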; 120,000 tested, 0.05% active;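 active = both duplicates at 50% or more, or one of them with a favoured structure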;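 note: 0% = mean of negative control wells and 100% = mean of positive control wells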
MgrA-DNA mod = modulators of Staphylococcus aureus MgrA DNA binding; fluorescence polarization; inhibition, %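 (about 10 µg/mL by stock and volumes)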; 84,000 tested, 0.13% active; AID 602314;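 active = above 50% in either of two replicates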;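 note: 0% = protein plus DNA without compound and 100% = DNA alone without protein; higher means less MgrA bound to DNA so lower polarization; one replicate is shown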
* hit, by the source's call; . = not tested or not shown; & = joins results of further samples. The list is partial, so the mix of outcomes need not match the whole.

Fields: Sa helicase inh	MgrA-DNA mod
O=C(/C=C/c1ccc(Br)cc1)Nn1c(-c2ccccc2F)nc2ccccc2c1=O
  .	-1.2
Cc1ccc(NC(=O)Cn2c(=O)oc3cc(S(=O)(=O)N4CCCCCC4)ccc32)cc1F
  1.0	.
N#C/C(C(=S)Nc1ccccc1)=C1/NN=C2CCCCCN21
  -7.0	.
O=C(c1ccco1)N1CCN(S(=O)(=O)c2c(F)cccc2F)CC1
  -3.0	.
CCNC(=O)CSc1nnc(-c2cccc(C)c2)n1-c1ccc(OCC)cc1
  -6.0	.
CCCN(Cc1nnc(-c2cccs2)o1)C(=O)C1COc2ccccc2O1 (stereo not drawn)
  12.0	.
O=C(Nc1ccccc1C(=O)Nc1ccccn1)c1ccccc1
  .	-1.2
CCc1ccccc1NC(=O)Nc1cccs1
  -21.0	.
Cc1cccc2c1cnn2C(=O)Nc1cccc(C(F)(F)F)c1
  13.0	3.5
CCOC(=O)C1=C(CSc2nc3cc(C(=O)OC)ccc3c(=O)n2Cc2ccco2)NC(=O)NC1
  12.0	.
CCc1ccc(NC(=O)C2=CC=CN3CCS(=O)(=O)N=C23)cc1
  5.0	.
Cc1cc(C)nc(SCCS(=O)(=O)Cc2ccc(Cl)cc2)n1
  -1.0	.
CCCCS(=O)(=O)C1CCS(=O)(=O)C1 (stereo not drawn)
  -7.0	0.1
Cn1c(SCc2cc(=O)n3ccsc3n2)nnc1-c1ccco1
  -6.0	7.6
CC(C)NC(=O)C(C#N)(Cc1ccc(C#N)cc1)Cc1ccc(C#N)cc1
  -12.0	.
CCN1CCCc2cc(O)ccc21
  29.0	.
COC(=O)c1ccc(CN(C(C)=O)c2ccccc2)o1
  0.0	.
CCCCCCCCCC(=O)Nc1nc2c(s1)Cc1ccccc1-2
  .	3.1
CC(=O)N1CCN(S(=O)(=O)c2cccc(C(=O)OCc3cc(=O)n4cc(Br)ccc4n3)c2)CC1
  -18.0	.
Cc1cc(SCC(=O)N2CCCC2)n2c(nc3ccccc32)c1C#N
  1.0	.

Grouped by structure, those above containing a cyano group.
Fields: Sa helicase inh	MgrA-DNA mod
N#C/C(C(=S)Nc1ccccc1)=C1/NN=C2CCCCCN21
  -7.0	.
CC(C)NC(=O)C(C#N)(Cc1ccc(C#N)cc1)Cc1ccc(C#N)cc1
  -12.0	.
Cc1cc(SCC(=O)N2CCCC2)n2c(nc3ccccc32)c1C#N
  1.0	.

(more compounds)
Fields: Sa helicase inh	MgrA-DNA mod
COc1ccc(NC(=O)c2sc(=S)[nH]c2N)cc1
  3.0	-0.3
Cn1c(CNC(=O)Cc2ccccc2)nc2ccccc21
  -6.0	.
COC(=O)c1sc(N)c(C(=O)OC)c1COC(=O)CN1CCCCCC1=O
  17.0	.
O=C(CSc1ncccn1)N1N=C(c2ccc(Cl)cc2)CC1c1ccco1 (stereo not drawn)
  -8.0	.
Cc1ccc(S(=O)(=O)N(C)c2nc3ccccc3nc2Cl)cc1
  -1.0	.
COc1ccc(C(=O)CN2CCN(c3cc(C)nc4ccccc34)CC2)cc1
  .	-1.1
C/C(=N/NC(=O)Cc1cccs1)c1ccc(C)cc1
  -2.0	0.2
Cc1onc(-c2ccccc2)c1C(=O)OCC(=O)c1ccc(Cl)cc1
  .	1.9
Cn1nc(OCC(=O)NC(C)(C)C)cc1C(F)(F)F
  .	-9.4
CCCCn1c(C(C)O)nc2ccccc21 (stereo not drawn)
  -19.0	.
Cc1c(Cl)cccc1NC(=O)N1CC(C)Sc2ccccc21 (stereo not drawn)
  -1.0	1.2
O=C(ON1C(=O)c2cccc3cccc(c23)C1=O)c1ccco1
  -20.0	.
O=C(Nc1ccccc1C(=O)NCc1cccnc1)c1ccco1
  .	-2.5
Cc1nn(-c2ccc(F)cc2)c(Cl)c1/C=C/C(=O)OCC(=O)Nc1c(C#N)oc2ccccc12
  -7.0	.
OCCN1N=C2c3ccccc3CCC2C1c1ccccc1Cl (stereo not drawn)
  .	4.7
O=C(CSC(=O)c1ccccc1)Nc1ccc(Cl)cn1
  -3.0	2.0
CC(C)CCNC(=S)Nc1ccccn1
  7.0	2.2
COc1ccc(-c2cc(CC(C)C)nc(N)c2C#N)cc1
  -2.0	-2.4
CC1CCN(S(=O)(=O)c2ccc3[nH]cc(C(=O)N(Cc4ccco4)CC4CCCO4)c(=O)c3c2)CC1 (stereo not drawn)
  .	-1.2
Cc1nnc(NCC(C)(C)C)s1
  .	-1.5

(more compounds)
Fields: Sa helicase inh	MgrA-DNA mod
COc1cccc(NS(=O)(=O)c2ccc(-n3cccn3)cc2)c1
  10.0	.
CN1CCN(c2cc(-c3ccncc3)nc3ccccc23)CC1
  .	-3.0
CCOC(=O)C1=C(C)NC2=C(C(=O)CC(c3ccc(Cl)cc3)C2)C1c1ccc(OC)cc1OC (stereo not drawn)
  .	-10.7
N/C(=N\S(=O)(=O)c1cc(Cl)c(Oc2ccc([N+](=O)[O-])cc2Cl)c(Cl)c1)c1ccc(Cl)cc1
  .	0.6
O=S(=O)(N(c1ccc(Br)cc1)C(F)F)C(F)(F)F
  20.0	.
O=C(CSc1nnc2n1CCCCC2)NCc1ccco1
  -4.0	.
O=C(NCCC1=CCCCC1)Nc1ccc(Cl)cc1
  7.0	0.7
CNc1ccccc1C(=O)NN
  .	-0.2
Nc1nc2c(ncn2COCCO)c(=O)[nH]1
  .	5.1&1.5
c1ccc2c(c1)-c1ccccc1C2C1CCNCC1
  -19.0	-2.0
Cc1cccc(-c2nnc(SCN3C(=O)c4ccccc4C3=O)n2C)c1
  -12.0	.
CCOC(=O)c1cnn2c1nc(Sc1cccc(OC)c1)c1ccccc12
  .	-1.0
Cc1cc(I)ccc1NC(=O)Nc1ccccc1
  2.0	0.7
CN1CCC(OC(=O)COc2ccccc2)CC1
  12.0	3.6
CC(OC(=O)C1CCN(c2ccc(C(F)(F)F)cn2)CC1)C(=O)N(C)c1ccccc1 (stereo not drawn)
  2.0	.
CCOC(=O)N1CCC(NC(=O)c2cc(C(=O)Nc3ccc(C)c(F)c3)ccc2CO)CC1
  8.0	.
CSc1ccccc1Nc1ncnc2c1cnn2-c1ccccc1
  -4.0	.
O=C(NCC[n+]1ccc2ccccc2c1)c1ccccc1
  2.0	-2.3
CC(C)(C)c1ccc(C23OC(=O)C(C)(C)C2OC(=O)C3(C)C)cc1 (stereo not drawn)
  2.0	-0.6
Cc1ccc(S(=O)(=O)n2ncc3c2CCN(C(=O)OC(C)(C)C)C3)cc1
  26.0	.

Following part
Fields: Sa helicase inh	MgrA-DNA mod
CCOc1ccc(N2C(=O)c3ccc(OC)c(OC)c3C2=O)cc1
  -5.0	.
O=C(OCCNc1c(F)c(F)nc(F)c1F)c1ccccc1
  -10.0	1.1
Cc1[nH]c(=O)c(C#N)c(C)c1CCC(=O)N[C@@H](Cc1ccccc1)c1nc2ccccc2[nH]1
  -8.0	.
CS(=O)(=O)N(Cc1cccc(F)c1)n1c(SCc2cccc(F)c2)nc2ccccc2c1=O
  7.0	0.2
Cc1cccc2nc(CSC3=Nc4ccccc4C4=NC(CCC(=O)NCc5ccco5)C(=O)N34)cc(=O)n12 (stereo not drawn)
  0.0	.
CC(C)n1ncc2c(C(=O)O)cc(C3CC3)nc21
  0.0	.
N#Cc1c2c(c(NCC3CCCO3)n3c1nc1ccccc13)CCCC2 (stereo not drawn)
  3.0	-0.4
O=C1CCCN1Cc1nnc(SCc2c(Cl)cccc2Cl)o1
  -4.0	.
CCOCCCn1c(NN)nc2ccccc2c1=O
  -5.0	.
COc1ccc(NC(=O)n2ncc3cc(Cl)ccc32)cc1
  11.0	.
Cc1ccc(C(=O)OC(C)CN2C(C)CCCC2C)cc1 (stereo not drawn)
  4.0	-0.6
CCCn1c(N)cc(=O)[nH]c1=O
  -24.0	.
COc1cccc(-c2nn(-c3ccc(F)cc3)cc2C(=O)N2CCN(c3ccccc3O)CC2)c1
  26.0	.
COC(=O)C1=C(c2ccccc2)C(c2ccccc2)=C(C(=O)OC)C1=O
  .	13.9
O=C(CSc1ccccc1)c1ccccc1
  7.0	-0.7
NC(Cc1csc2ccc(Cl)cc12)C(=O)O (stereo not drawn)
  .	-0.6
COc1ccccc1-n1c(C)cc(/C=C(\C#N)C(=O)OCc2nnc(-c3ccccc3)o2)c1C
  1.0	.
CN(CC(=O)NCCc1ccc(Cl)cc1)CC1COc2ccccc2O1 (stereo not drawn)
  -14.0	.
COCCn1c(C)cc(C(=O)COC(=O)c2ccc3c(=O)n4c(nc3c2)CCCCC4)c1C
  -4.0	.
Cc1cc(-c2ccc(C)c(S(=O)(=O)NCCCN3CCCCCC3)c2)on1
  2.0	.

The list continues.
Fields: Sa helicase inh	MgrA-DNA mod
COc1cccc(C2=NOC(C(=O)NCC3CCCO3)C2)c1 (stereo not drawn)
  12.0	-0.8
CCc1ccc(NC(=O)Nc2nnc(N(CC(C)C)CC(C)C)s2)cc1
  5.0	-1.0
Cc1noc2c1C(c1ccccc1)C1=C(CC(C)(C)CC1=O)N2 (stereo not drawn)
  1.0	-1.7
CC1=CC(C)(C)N(C(=O)CSc2ccccn2)c2ccccc21
  1.0	1.0
COC(=O)c1cc(NC2c3ccccc3C(=O)N2c2ccccn2)cc(C(=O)OC)c1 (stereo not drawn)
  -6.0	0.4
CC(C)(C)OC(=O)N1CCC(CNC(=O)Nc2ccccc2)CC1
  .	-1.4
Cc1ccc(C(=O)Nc2c(-c3ccccc3)nc3scnn23)cc1
  7.0	.
Cn1c(SCC(=O)NC(C)(C)C)nnc1-c1ccccc1
  3.0	-1.4
CC(=O)Nc1c(-c2ccccc2)nc2cc(C)ccn12
  3.0	-1.3
CCn1c(=O)c2cc(C(=O)NCCN(C)C)sc2c2ccccc21
  22.0	5.2
COc1ccc(CN(Cc2ccccc2)C(=S)Nc2c(C)cccc2C)cc1OC
  .	-1.8
c1csc(-c2ccc(-c3ccn[nH]3)s2)c1
  -7.0	.
NC(=O)Cc1coc2ccc3ccccc3c12
  -11.0	12.8
C=CC(=O)NC(C)(C)Cc1ccccc1
  -2.0	-2.7
O=C(CCCCCN1C(=O)C2C3C=CC(C3)C2C1=O)Nc1ncccc1O (stereo not drawn)
  -6.0	.
COC(=O)C1=CN(C)C=C(C(=O)OC)C1c1ccc(OC)cc1
  18.0	.
COc1ccc(N(Cc2nnc3n2CCCCC3)C(=O)Nc2ccccc2)cc1
  2.0	.
CCc1ccc(N(CC)c2ncnc3c2nc2n3CCCCC2)cc1
  -3.0	0.5
O=C(COc1ccc(Cl)cc1)N1CCN(Cc2ccc3c(c2)OCO3)CC1
  .	-1.2&2.0
O=C(Nc1nnc(-c2ccc(Br)cc2)s1)C1CC1
  1.0	.

Structures shown so far with a COOH group (2):
Fields: Sa helicase inh	MgrA-DNA mod
CC(C)n1ncc2c(C(=O)O)cc(C3CC3)nc21
  0.0	.
NC(Cc1csc2ccc(Cl)cc12)C(=O)O (stereo not drawn)
  .	-0.6

(more compounds)
Fields: Sa helicase inh	MgrA-DNA mod
O=C(Oc1ccc(C2Oc3ccccc3C3CC(c4ccc(Cl)cc4)=NN32)cc1)c1ccccc1 (stereo not drawn)
  .	-0.7
CCc1ccc(OCC(=O)N/N=C(\C)c2ccc(-n3ccnc3)cc2)cc1
  -7.0	.
CCN1C(=O)/C(=C2\SC(=S)N(c3cc(OC)ccc3OC)C2=O)c2ccccc21
  .	2.3
O=c1[nH]c(CSc2nc3ccccc3o2)nc2ccccc12
  -8.0	0.2
COc1ccc(CNC(=O)c2ccc(Cn3cc(Cl)cn3)o2)cc1
  8.0	.
C=CCNc1nc(Cl)nc(Nc2ccc(OCC)cc2)n1
  12.0	.
Cc1cc(C)c(C#N)c(SCCCCN2C(=O)c3ccccc3C2=O)n1
  9.0	.
COC(=O)N1CCN(CCc2ccccc2)CC1
  12.0	-0.4
[O-]c1nn(-c2cccc(Cl)c2)n[n+]1-c1cccc(Cl)c1
  -3.0	-1.1
CCC(=O)c1ccc(OCC(=O)N2Cc3ccccc3CC2C(=O)O)cc1 (stereo not drawn)
  -4.0	.
Cc1nc2ccc(NC(=O)C3CC3)cc2c(=O)n1Cc1ccc(F)cc1
  18.0	-11.2
O=C(O)CC(N=C1NS(=O)(=O)c2ccccc21)c1ccc(Cl)cc1 (stereo not drawn)
  -12.0	.
Fc1ccc(Cn2nnc(-c3cccc(C(F)(F)F)c3)n2)cc1Cl
  .	1.1
CSc1nnc(Cc2cc(=O)[nH]c(=O)[nH]2)n1-c1ccccc1
  7.0	.
COc1ccccc1CN(C(C)=O)C1CC(C)(C)N(C(C)=O)C(C)(C)C1
  8.0	-1.1
CN(C)c1ccc(NC(=O)NCc2ccccc2)cc1
  9.0	-0.6
CCCOc1ccc(C2NC(=O)NC(C)=C2C(=O)OCCCBr)cc1 (stereo not drawn)
  .	0.3
O=C(OCC1CC1)c1cnc(Sc2ccccn2)nc1C(F)(F)F
  .	-0.8
C#CCOc1ccc2ccccc2c1CO
  12.0	1.4
N=c1sccn1CC(=O)O
  -2.0	-1.9

More compounds follow:
Fields: Sa helicase inh	MgrA-DNA mod
O=C(Nc1sccc1C(=O)N1CCOCC1)c1cccnc1
  7.0	3.1
O=C(Nc1nncs1)C12CC3CC(CC(C3)C1)C2
  -22.0	-1.9
NC(=O)c1c(O)c2c([nH]c1=O)CCCC2
  4.0	-0.8
Cc1noc2ncnc(Nc3ccccc3)c12
  -26.0	.
Cc1c(N)cccc1-c1nc2ccccc2o1
  -32.0	.
CNCc1ccc(OC)cc1
  8.0	.
O=C(O)CCSc1nnc(-c2cccs2)o1
  -14.0	.
CC/C(C)=N/NS(=O)(=O)c1ccccc1
  -27.0	.
CN1CCN(C(CNC(=O)Cc2ccc(F)cc2)c2ccc(F)cc2)CC1 (stereo not drawn)
  4.0	.
